Mtb H37Rv: Mycobacterium tuberculosis H37Rv growth inhibition, cell based, confirmatory dose response (AID 1949); M. tuberculosis H37Rv growth inhibition; most inactive calls were filed without a number and no value below 0 was filed; one-dose inhibition, % at 10 µg/mL; IC50 in µg/mL for titrated hits; 100,000 tested, 1.6% active;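 active = confirmed in a dose series; inconclusive = about 50% or more but not retested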;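 note: bacteria grown 7 days with compound before Alamar blue readout; 0% = untreated bacteria and 100% = reference antibiotic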
* = called active by the depositor; i = inactive; ? = inconclusive. Only part of the results is shown; the hit share may differ from the screen's.

SMILES	Mtb H37Rv
CCOC(=O)N1CCN(C(=O)c2ccc(C)cc2C)CC1	i
COC(=O)c1ccc(Cn2nc(C(F)(F)F)cc2C)cc1	i
Cc1ccccc1OCC(=O)NC(=S)Nc1ccc(I)cn1	i
Cc1cc(C)cc(OS(=O)(=O)c2ccc(Cl)cc2)c1	5%
N#Cc1cc2c(nc1SCC(=O)Nc1ccc(Cl)cc1)CCCCCC2	i
C=CCNC(=S)NS(=O)(=O)c1cccs1	i
CC(=O)Nc1ccc(-c2ccc(NC(C)=O)c(C)c2)cc1C	i
COc1ccc(S(=O)(=O)Nc2c(C)cccc2C(C)C)cc1Br	5%
Cc1ccc([N+](=O)[O-])cc1NC(=O)COc1ccc(S(=O)(=O)N2CCCC2)cc1	i
CCOc1ccccc1NS(=O)(=O)c1ccc(Cl)c(OC)c1	1%
Cc1ccc(-c2[nH]nc3c2C(c2cccc(F)c2)C(C#N)=C(N)O3)cc1C (stereo not drawn)	i
CCc1nnc(NC(=O)CSc2nnnn2-c2ccc(C)c(Cl)c2)s1	i
O=C(CCC(=O)Nc1cccc(F)c1)Nc1cccc(F)c1	i
O=C(CSc1nc2sc3c(c2c(=O)n1-c1ccccc1)CCCC3)NCC1CCCO1 (stereo not drawn)	i
Cc1cc(=O)oc2cc(NC(=S)N3CCC(Cc4ccccc4)CC3)ccc12	i
Cc1sc(NC(=O)COc2ccc([N+](=O)[O-])cc2)c(C(N)=O)c1C	i
O=C(Nc1nc2ccc(F)cc2s1)c1cccs1	1%
COC(=O)c1sc(NC(=O)C2CCCCC2)c(C(=O)OC)c1C	i
O=C(NCc1ccco1)C1CCN(C(=O)c2ccc(-c3ccccc3)cc2)CC1	i
Cc1sc(NC(=O)c2ccc(F)cc2)nc1OC(=O)c1ccc(F)cc1	i
COc1ccc(C(=O)NC(=S)Nc2ccc(C(=O)O)cc2)cc1[N+](=O)[O-]	i
COc1ccc2oc(=O)c(C(=O)NC(C)c3ccccc3)cc2c1 (stereo not drawn)	i
CCC(Oc1ccccc1)C(=O)Nc1ccccc1OC (stereo not drawn)	6%
COc1ccc(CCNC(C)=O)cc1OC	i
CCC(CC)C(=O)Nc1cc(OC)c(OC)cc1C(=O)O	5%
Cc1ccc(Cn2ncc3c(NCCN4CCOCC4)ncnc32)cc1	i
Cn1cnnc1SCc1ccc(F)cc1	i
CCCOc1ccc(N2CC(C(=O)Nc3cccc([N+](=O)[O-])c3)CC2=O)cc1 (stereo not drawn)	i
O=C(COc1ccc(Br)cc1)Nc1ccc(S(=O)(=O)N2CCOCC2)cc1	i
Brc1ccccc1OCCCCN1CCNCC1	i
COc1ccc(NC(=O)Nc2ccccc2C(N)=O)cc1OC	i
O=C(Nc1ccc([N+](=O)[O-])cc1)c1c(F)c(F)c(F)c(F)c1F	i
COc1cc(C(=O)NC(=S)Nc2ccccc2Br)cc(OC)c1OC	i
CN(C)S(=O)(=O)N1CCN(S(=O)(=O)N(C)C)CC1	i
CCOc1ccc(S(=O)(=O)Nc2cccc(OC)c2)cc1	3%
CCC(C)c1ccc2oc(-c3cccc(NC(=O)c4ccccc4[N+](=O)[O-])c3)nc2c1 (stereo not drawn)	3%
COc1ccc(CCNC(=S)Nc2ccccc2C)cc1OC	i
COC(=O)c1nn(-c2ccc(C)cc2C)cc1O	i
CCc1ccc(NC(=O)CN(C)S(=O)(=O)c2ccc(C)cc2)cc1	i
Cc1cc(C)nc(NC2=NC3CCCCC3N2)n1 (stereo not drawn)	i
CCC(C)NS(=O)(=O)c1ccc(NC(=O)c2ccco2)cc1 (stereo not drawn)	i
CCn1c(CC(=O)Nc2cccc(OC)c2)nnc1SCc1ccc(Br)cc1	2%
C=CCNC(=O)c1ccccc1NC(=O)CN(c1ccccc1CC)S(=O)(=O)c1ccc(C)cc1	i
COc1ccc(C(=O)Oc2ccccc2C)cc1Br	2%
CCc1ccc(C(=O)NC(=S)Nc2ccc(NC(=O)c3ccco3)c(Cl)c2)cc1	i
O=C(COc1ccc([N+](=O)[O-])cc1)Nc1ccccc1N1CCCCC1	i
COc1ccc(-c2csc(NC(=S)NC(=O)c3cc(OC)cc(OC)c3)n2)cc1	i
COC(=O)c1ccc(COc2ccc3c(=O)c(-c4ccc(Cl)cc4)c(C)oc3c2)cc1	3%
Cc1cccc(N2CCN(C(=O)c3cc4ccccc4oc3=O)CC2)c1C	1%
CCCC(=O)N(c1cccc(OC)c1)c1nc(-c2ccc(OCC)cc2)c(CC)s1	i
Cc1ccc(OCC(=O)c2ccc(C)c(C)c2)cc1C	5%
COc1cccc(OC)c1OCCCCOc1c(Cl)cc(C)cc1Cl	18%
CCOc1ccc(C(=O)Nc2cccc3ncccc23)cc1[N+](=O)[O-]	i
CC(=O)c1cccc(NC(=O)c2ccc(N(C)S(=O)(=O)c3ccccc3)cc2)c1	4%
O=C(Nc1ccc(-c2cn3ccccc3n2)cc1)c1cccc([N+](=O)[O-])c1	i
COc1ccc(CCNC(=O)c2ccccc2[N+](=O)[O-])cc1C	i
Cc1cc2nc(-c3ccc(C)c(NC(=S)NC(=O)c4ccco4)c3)oc2cc1C	i
CCOc1ccc(OCCOCCNCCCOC)cc1	i
Nc1ncnc2c1ncn2CCOc1ccccc1	i
COC(=O)c1ccc(NC(=O)c2ccc(-c3ccc(Br)cc3)o2)cc1	12%

Additional entries follow:
mol	Mtb H37Rv
NC(=O)c1oc2ccccc2c1NC(=O)c1ccc(Cl)cc1	i
CC(=O)Nc1ccccc1NC(=O)C(C)(C)C	i
Cc1sc(NC(=O)COc2ccccc2)c(C(N)=O)c1C	1%
COc1ccc(-c2cc(=O)[nH][nH]2)cc1OC	i
CCOC(=O)c1ccc(NC(=O)CN(c2cc(OC)ccc2OC)S(=O)(=O)c2ccc(OC)c(OC)c2)cc1	i
CC(C)C(=O)Nc1ncc(Cc2ccccc2F)s1	6%
Cc1cc(C)c(OCC(=O)N2CCCC(C)C2)c(C)c1 (stereo not drawn)	i
O=C(Nc1ccccc1OC(F)F)c1ccc(F)cc1	1%
CCNc1ccccc1C(=O)OCc1ccc(C(=O)OC)cc1	6%
CN(C)CCNC(=O)Cc1cccs1	i
Cc1ccccc1C(=O)N1CCC(C(=O)NCc2ccc(Cl)cc2)CC1	0%
Cc1cccc(NC(=O)c2ccccc2NS(C)(=O)=O)c1	i
COc1ccc(N2CCN(C(=O)c3ccc(C(C)(C)C)cc3)CC2)c([N+](=O)[O-])c1	28%
COc1ccc(NC(=O)CSCc2cccc(Cl)c2)cc1OC	i
CCN(CC)S(=O)(=O)c1ccc(N2CCCCC2)c(N)c1	i
O=C(CNc1ccccc1)Nc1ccc(F)cc1	20%
Cc1c(C(=O)NCc2ccccc2)oc2ccc(Cl)cc12	i
Cc1occc1C(=O)NCc1ccccn1	i
CCN(CC)c1ccc(C(=S)N2CCOCC2)cc1	i
O=C(NC(=S)NC1C2CC3CC(C2)CC1C3)c1ccccc1 (stereo not drawn)	?
CCOC(=O)C1=C(C)NC(=O)NC1c1cn(-c2ccccc2)nc1-c1ccc(F)cc1 (stereo not drawn)	5%
CCOC(=O)CNC(=O)c1cc(C)oc1C	i
COc1cc(Cl)c(C)cc1NC(=O)c1ccc(Br)cc1	i
CNC(=S)Nc1cc(Cl)ccc1C	i
CCc1ccccc1NS(=O)(=O)c1ccc(-c2ccccc2)cc1	1%
O=C(c1ccc(S(=O)(=O)N2CCCCC2)cc1)N1CCc2ccccc2C1	4%
COc1ccc(C2CC(=O)C3=C(C2)Nc2ccccc2NC3c2ccc(N(C)C)cc2)cc1 (stereo not drawn)	i
CSc1ncc(Cl)c(C(=O)Nc2ccc(S(=O)(=O)N(C)Cc3ccccc3)cc2)n1	i
COc1cc(NC(=O)c2cc(C)cc(C)c2)ccc1NC(=O)c1cccs1	i
Cc1c(C(=O)c2ccc(Br)cc2)c(=O)n(C)c(=O)n1C	i
O=C(O)CN1C2=C(C(=O)CCC2)C(c2ccc(OCc3ccccc3)cc2)C2=C1CCCC2=O	6%
CCOC(=O)c1cc(-c2ccccc2)sc1NC(=O)c1cccs1	i
CCCCOC(=O)Nc1ccc(I)cc1C	i
COc1ccccc1OCC(=O)Nc1nc(-c2cc(C)ccc2C)cs1	i
COC(=O)c1c(N2C(=O)C3CC(C)=C(C)CC3C2=O)sc(C)c1C (stereo not drawn)	i
COc1ccc(Cl)cc1NC(=O)CN(c1ccc(Cl)c(Cl)c1)S(=O)(=O)c1ccccc1	6%
Cc1nnc(NC(=O)CCCN2C(=O)c3cccc([N+](=O)[O-])c3C2=O)s1	i
Cc1cc(Br)ccc1OCC(=O)Nc1ccc(Nc2ccccc2)cc1	i
Nc1cc(N)nc(SCC(=O)N2CCc3ccccc32)n1	i
COC(C(=O)Nc1ccc(F)c(F)c1)c1ccccc1 (stereo not drawn)	i
CCC(=O)N1CCN(c2ccccc2NC(=O)COc2ccc(Br)cc2)CC1	i
CCN(C(=O)c1sc2cc(OC)ccc2c1Cl)c1ccccc1	4%
CC1(C)COC(/C=C/c2cccc([N+](=O)[O-])c2)=N1	12µg/mL*
CCOC(=O)Cc1ccc(NC(=O)c2ccccc2Br)cc1	i
CCCC(=O)Nc1ccccc1NC(=O)COc1ccc(Br)cc1	i
Cc1cc2c(=O)n(C)c(SCC(N)=O)nc2s1	i
CCOC(=O)c1ccc(NC(=O)c2ccc(OC(=O)CC)cc2)cc1	i
Nn1c(=O)c2ccccc2n2c(SCc3ccccc3)nnc12	i
CCNc1cc(Nc2ccccc2OC)c([N+](=O)[O-])c2nonc12	i
CNC(=O)c1cc(Nc2nnc(-c3ccc(C)c(S(=O)(=O)NC)c3)c3ccccc23)ccc1OC	i

Some of the entries so far, with each value named.
Cc1cccc(N2CCN(C(=O)c3cc4ccccc4oc3=O)CC2)c1C
  Mtb H37Rv: 1%
CCCC(=O)N(c1cccc(OC)c1)c1nc(-c2ccc(OCC)cc2)c(CC)s1
  Mtb H37Rv: i
Cc1ccc(OCC(=O)c2ccc(C)c(C)c2)cc1C
  Mtb H37Rv: 5%

(cont.)
mol	Mtb H37Rv
COC(=O)C1=C(C)N=C2SCCC(=O)N2C1c1cccc(OC)c1 (stereo not drawn)	i
O=C(NCC1CCCO1)c1cccc(NC(=O)c2ccco2)c1 (stereo not drawn)	i
Cc1ccc(CN(CC(=O)Nc2cccc(C(F)(F)F)c2)S(=O)(=O)c2ccccc2)cc1	2%
O=C(CSCc1ccccc1)Nc1ccc2c(c1)C(=O)NC2=O	i
Cc1cc(OCC(=O)c2cccc([N+](=O)[O-])c2)c2c3c(c(=O)oc2c1)CCCC3	i
Cc1ccc(C(=O)Nc2ncc(C)s2)o1	2%
CCOC(=O)c1sc(NC(=O)CSc2n[nH]c(CC)n2)nc1C	i
Cc1cc(Cl)c(OCCCCOc2ncnc3ccccc23)c(Cl)c1	i
CCc1ccccc1OCC(=O)Nc1cccc(C)c1C	8%
CCNC(=O)c1cc(-c2cccc(C)c2)nc2ccccc12	2%

Some of the entries so far, as labelled records.
compound: Cc1ccc(CN(CC(=O)Nc2cccc(C(F)(F)F)c2)S(=O)(=O)c2ccccc2)cc1
  Mtb H37Rv: 2%
compound: O=C(CSCc1ccccc1)Nc1ccc2c(c1)C(=O)NC2=O
  Mtb H37Rv: i

Next section.
mol	Mtb H37Rv
Cc1cccc(NC(=O)C(=O)NCCCc2ccccc2)c1	i
Cc1cc(OCc2cnn(-c3ccccc3)c2)cc(O)c1-c1n[nH]c(C)c1Oc1ccccc1	3%
CCc1ccccc1NS(=O)(=O)c1ccc(CC(C)C)cc1	i
Cc1cc(C)cc(C(=O)O/N=C(\N)c2cccnc2)c1	11%
CCN1C(=O)c2ccc(C(=O)NCc3ccc(C(=O)O)cc3)cc2C1=O	i
CC(C)(C)SCCNS(=O)(=O)c1ccc2ccccc2c1	i
COc1cccc(NC(=O)C(Cc2ccccc2)N2C(=O)c3ccccc3C2=O)c1 (stereo not drawn)	i
CCN(CC)c1ccc(NC(=O)COc2ccc(OC)cc2)c(C)c1	i
CS(=O)(=O)NN1C(=O)c2ccccc2NC12CCCC2	1%
O=C(CC1C(=O)NCCN1C(=O)Nc1ccccc1)Nc1cccc(Cl)c1 (stereo not drawn)	i

3 compounds from above, ordered by molar mass, highest first:
mol	Mtb H37Rv
Cc1cc(OCc2cnn(-c3ccccc3)c2)cc(O)c1-c1n[nH]c(C)c1Oc1ccccc1	3%
O=C(CC1C(=O)NCCN1C(=O)Nc1ccccc1)Nc1cccc(Cl)c1 (stereo not drawn)	i
CCc1ccccc1NS(=O)(=O)c1ccc(CC(C)C)cc1	i

The listing continues:
mol	Mtb H37Rv
CNC(=S)NNc1nncc2ccccc12	1%
Cc1ccc(NC(=O)COc2cc(C)c(Br)c(C)c2)cc1	i
C=CCNC(=S)N1CCN(c2ccccc2)CC1	i
CCOC(=O)c1sc(NC(=O)c2ccc3c(c2)OCO3)nc1-c1ccccc1	i
COc1cccc(OC)c1OCCCCN1CCCCC1	3%
CCCCc1ccc(NC(=O)CN(c2ccccc2OC)S(C)(=O)=O)cc1	i
CCOc1c(Cl)cc(C(=O)NCCc2ccccc2)cc1Cl	i
CN(C(=O)COc1ccc(C(C)(C)C)cc1)C1(C)CCS(=O)(=O)C1 (stereo not drawn)	2%
CC(C)NC(=O)c1ccc(-c2cccc([N+](=O)[O-])c2)o1	2%
CC12CCC(C(=O)Nc3cc(Cl)ccc3Cl)(OC1=O)C2(C)C (stereo not drawn)	i

Reprinted from the results shown, 5 compounds:
mol	Mtb H37Rv
CNC(=S)NNc1nncc2ccccc12	1%
Cc1ccc(NC(=O)COc2cc(C)c(Br)c(C)c2)cc1	i
C=CCNC(=S)N1CCN(c2ccccc2)CC1	i
CCOC(=O)c1sc(NC(=O)c2ccc3c(c2)OCO3)nc1-c1ccccc1	i
COc1cccc(OC)c1OCCCCN1CCCCC1	3%

Source: PubChem (Southern Research Institute)
